AID504770 – growth inhibitors of E. coli YBA685 in a screen for V. cholerae RctB (chromosome II replication) inhibitors; E. coli YBA685 rctB-dependent plasmid, OD600 growth, 3 h; stronger effect = lower value; 0.27% of 130,000 active; z-score (test concentration not listed);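 active = z-score under -2 on both plates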;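 also: wells of about 30 µL received 100 nL stock; score is relative to mean and SD of the test wells; the first replicate is given; strong numbers were not always called active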
Ba CapD inh – blocks the Bacillus anthracis CapD enzyme | 0.23% of 140,000 active | purified CapD enzyme, fluorescence intensity read-out; stronger effect = lower value; some hits fall short of the stated cut | z-score (concentration not given with the values) | AID 492967;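 active = z-score under -4 in either of two replicates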;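 also: stock transfer was 100 nL into about 40 µL; score is relative to mean and spread of the plate; one replicate is shown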
Numbers without * were called inactive; i = inactive; . = not tested or not shown. Not all compounds are listed, so the mix of outcomes need not match the whole.

cpd | SMILES | AID504770 | Ba CapD inh
1 | NC(=O)Cn1nc2c3c(cccc3c1=O)-c1ccccc1-2 | -0.45 | 1.08
2 | O=c1oc2ccccc2c(O)c1C=Nc1ccc(Cl)cc1 | -0.35 | 0.445
3 | Cc1cc(N2CC34C=CC(O3)C(C(=O)O)C4C2=O)no1 (stereo not given) | -0.85 | .
4 | O=c1[nH]nc(SCc2cccc(Oc3ccccc3)c2)c(=O)[nH]1 | 0.1 | -0.025
5 | COc1ccc(C(=O)COc2ccccc2OC)cc1 | 0.1 | 0.49
6 | CNC(=O)Nc1ccc(C(=O)OC)cc1 | -0.25 | 0.415
7 | CC(C)(C)OC(=O)N1Cc2ccccc2CC1C(=O)N(CCO)Cc1ccccc1 (stereo not given) | . | 0.185
8 | CCCNC(=O)Cn1nc(C(F)(F)F)cc1C | -0.1 | 0.48
9 | CCOC(=O)c1cc(C#N)c(C)nc1N1CCN(S(=O)(=O)c2ccccc2)CC1 | -1.25 | 4.71
10 | O=C(Nc1ccccc1)N1C(=O)C2(OCCO2)c2cc(Br)ccc21 | . | -0.685
11 | Cc1ccc(S(=O)(=O)Nc2ccc(F)cc2F)cc1 | . | -0.455
12 | FC(F)(F)Oc1ccc(NC2=NCCCS2)cc1 | . | -0.2
13 | COc1ccccc1NC(C)=O | -0.65 | 0.335
14 | COc1ccc(OC)c(C2C(C#N)=C(N)Oc3n[nH]c(-c4ccc5ccccc5c4)c32)c1 (stereo not given) | . | 0.635
15 | COc1cccc(N2C(=O)/C(=C/c3ccc([N+](=O)[O-])cc3)C=C2c2ccccc2)c1 | . | -0.17
16 | O=C(O)c1cccc(Nc2nc(N3CCCC3)nc(N3CCCC3)n2)c1 | . | 0.365
17 | CCCc1c(SC(=O)N(C)C)ccc(C(C)=O)c1O | . | -0.245
18 | CC1(C)CC(=O)C2=C(C1)N(c1ccc(F)cc1)C(N)=C(C#N)C2c1cc(Br)cs1 (stereo not given) | . | 6.27
19 | COc1ccnc(Oc2ccc(S(=O)(=O)NC(C)(C)C)cc2)c1C#N | . | -0.595
20 | CC(=O)N1CCc2c(sc(NC(=O)C(C)C)c2-c2nc3ccccc3s2)C1 | -0.4 | -0.635
21 | CSc1sc(C(=O)NNC(=O)OCCCN2C(=O)c3ccccc3C2=O)cc1-c1nc(C)cs1 | . | 2.17
22 | CC(=O)OC1CCC2(C)C(=CCC3C2CCC2(C)C(C(C)CCCC(C)C)CCC32)C1 (stereo not given) | . | -0.355
23 | COc1cc(C(=O)OC2CSCC2NC(=O)c2ccccc2)cc(OC)c1OC (stereo not given) | -0.7 | -0.545
24 | Cc1cc(NC(=O)Cn2c(=O)n(CC3CCCO3)c(=O)c3ccc(C(=O)NC4CCCCC4)cc32)n[nH]1 (stereo not given) | -1.3 | -0.305
25 | CCc1cccc(CC)c1NC(=O)CSc1ncn[nH]1 | -0.95 | -0.695
26 | COc1ccc2cc(C(=O)Nc3ccc(O)cc3)sc(=O)c2c1OC | -0.85 | -2.41
27 | O=C(NCc1ccccn1)c1cccn1-c1ncc(C(F)(F)F)cc1Cl | . | -0.515
28 | O=C(Cc1cccs1)N1CCC(Cc2ccccc2)CC1 | -0.9 | .
29 | Cc1ccc(N2C(=O)C3C4c5ccccc5C(CO)(c5ccccc54)C3C2=O)cc1Cl (stereo not given) | . | 0.18
30 | CCCCC(=O)N1C2=C(C(=O)c3ccccc32)C(c2ccccc2)c2c1n(C)c(=O)n(C)c2=O (stereo not given) | . | 0.68
31 | CCN1CC2=C(OC(N)=C(C#N)C2c2ccccc2C)/C(=C/c2ccccc2C)C1 (stereo not given) | . | 2.9
32 | O=c1oc2ccc3ccccc3c2cc1-c1csc(Nc2cc(C(F)(F)F)ccc2Cl)n1 | . | 2.41
33 | COC(=O)COc1ccc(S(=O)(=O)Nc2ccc(OC)cc2)cc1C | 0.75 | 0.575
34 | CN1C2CCC1CC(NC(=O)c1ccc(Cl)cc1)C2 (stereo not given) | -0.4 | 0.005
35 | C=CCN1C(=O)/C(=C2/Sc3ccccc3N2CC)SC1=S | -0.15 | 2.07
36 | CCCn1c(SCC(=O)NC(=O)NCc2ccccc2)n[nH]c1=O | 0.45 | .
37 | N#Cc1c(NC(=O)CN2C(=O)CCC2=O)sc2c1CCC2 | 0.25 | -0.25
38 | COc1cc(NC(=O)c2cccc(C(F)(F)F)c2)c(Cl)cc1Cl | . | 0.265
39 | CN(C(=S)NCCc1ccccc1)C1CCCCC1 | -0.45 | -0.025
40 | O=C(NCc1cccs1)C1CCN(c2ncnc3c2sc2cccc(F)c23)CC1 | 0.05 | 0.12
41 | CCC(=O)N1N=C(c2ccccc2)CC1c1cc2cc(OC)ccc2nc1Cl (stereo not given) | 0.1 | -0.505
42 | CCOc1ccc(C2=Nn3c(nnc3C(F)(F)F)SC2)cc1 | . | -0.8
43 | CN(C)C(CNC(=O)C1(c2ccccc2)CC1)c1ccco1 (stereo not given) | 1.25 | .
44 | COC(=O)C1=C(C(=O)OC)SC(=C2C(=S)C(C)(C)N(C(=O)CCC3CCCCC3)c3ccc(C)cc32)S1 | . | 0.14
45 | COc1cc2c(cc1OC)C(C)N(C(=O)Nc1cccc(C(F)(F)F)c1)CC2 (stereo not given) | . | -0.1
46 | O=C1/C(=C/c2ccc(-c3ccccc3Cl)o2)SC(=S)N1CC1CCCO1 (stereo not given) | 1.15 | -0.285
47 | CCOC(=O)C1C2C=CC3(CN(C4CCCC4)C(=O)C13)O2 (stereo not given) | 0 | 0.47
48 | CC1(C)Cc2c(sc3ncn4nc(-c5ccncc5)nc4c23)C(C)(C)N1 | -0.2 | 0.04
49 | CC(=O)Nn1nc2c(n1)C(=NNC(=O)c1ccccc1)c1nn(NC(C)=O)nc1C2=NNC(=O)c1ccccc1 | -0.6 | 0.575
50 | Cc1cccc(Nc2nc3nonc3nc2NC(C)C)c1C | . | -1.42
51 | CCOc1ccc(C(CC(=O)O)NC(C)=O)cc1 (stereo not given) | 0.25 | 0.505
52 | COc1ccc(N2CCN(CCCNS(=O)(=O)c3c(C)noc3C)CC2)cc1 | -0.6 | -0.19
53 | O=C(c1ccccc1)c1cc(Cl)ccc1NC(=O)c1c(O)c2ccccc2[nH]c1=O | . | 0.17
54 | CCn1c(NC(=O)c2cccc(Cn3cc(Cl)cn3)c2)nc2ccccc21 | 0.3 | 0.125
55 | COc1ccc(C(=O)N2CCN(S(=O)(=O)c3cccc(Br)c3)CC2)cc1F | . | 0.355
56 | Cc1nc2nc(C#N)c(C#N)n2c(C)c1Cc1c(Cl)cccc1Cl | . | -0.595
57 | COc1ccc(N=Nc2c(-c3ccc(OC)cc3)[nH]oc2=O)cc1 | 0.8 | 0.305
58 | Cc1ccc(S(=O)(=O)N2CCN(C(=O)COC(=O)c3ccccc3C)CC2)c(C)c1 | -0.75 | .
59 | Cn1c(=O)c2nc(-c3nc4ccccc4[nH]3)c(N)nc2n(C)c1=O | -0.05 | 4.18
60 | CC(C)n1nc(C(N)=O)c2ccccc2c1=O | -0.5 | .

Complete entries from above.
Cn1c(=O)c2nc(-c3nc4ccccc4[nH]3)c(N)nc2n(C)c1=O is listed with AID504770: -0.05; Ba CapD inh: 4.18
COc1ccc(N2CCN(CCCNS(=O)(=O)c3c(C)noc3C)CC2)cc1 is listed with AID504770: -0.6; Ba CapD inh: -0.19
CCOC(=O)C1C2C=CC3(CN(C4CCCC4)C(=O)C13)O2 (stereo not given) is listed with AID504770: 0; Ba CapD inh: 0.47

Following part.
cpd | SMILES | AID504770 | Ba CapD inh
61 | COc1ccc(NS(=O)(=O)c2cc(-c3cc(C)[nH]n3)ccc2C)cc1OC | 0.35 | -2.35
62 | Fc1ccc(C(NC2CCCC2)c2nnc(-c3ccccc3)o2)cc1 (stereo not given) | 0.1 | -0.37
63 | CC(c1ccccc1)N(C)CN1C(=O)c2ccccc2C1=O (stereo not given) | -0.5 | .
64 | COc1ccc2c(c1)nc(SCC(=O)C(C)(C)C)n2C | 0.35 | 0.18
65 | Cc1nc(NCCCCCO)c2nnn(Cc3ccc(F)cc3)c2n1 | -0.6 | .
66 | O=c1c2ccccc2nc(-c2ccccc2)n1-c1ccccn1 | -0.65 | .
67 | COc1ccc(C(=O)N2c3cc(Cl)ccc3-c3c(ssc3=S)C2(C)C)cc1 | . | -0.12
68 | COc1ccc(-c2cc(C(=O)NC(Cc3c[nH]c4ccccc34)C(=O)O)c(C)o2)cc1OC (stereo not given) | 0.05 | -0.02
69 | Cc1ccccc1NC(=S)N(CCN(C)C)C(C)c1ccncc1 (stereo not given) | -0.2 | 0.16
70 | Cc1cccc(-n2c(SCC(=O)NCc3ccccc3)nc3c(oc4ccccc43)c2=O)c1 | -0.6 | -0.51
71 | O=C(c1ccccc1)c1ccccc1C(=O)N1CCc2ccccc2C1 | -0.05 | 0.135
72 | COc1cccc(C2C(C(=O)Nc3ccc(Br)cn3)=C(C)NC3=C2C(=O)CCC3)c1 (stereo not given) | . | 8.82
73 | CC(C)(C)c1ccc(C(=O)NN)s1 | 1.3 | 0.355
74 | Cc1cccc(NC2=NC(=S)N(c3ccc(I)cc3)C23CCCCC3)c1 | . | -0.21
75 | Cc1cccc(-c2nc3ccccc3c(=O)[nH]2)c1 | 0.35 | -0.085

2 compounds picked at random from the list so far:
cpd | SMILES | AID504770 | Ba CapD inh
4 | O=c1[nH]nc(SCc2cccc(Oc3ccccc3)c2)c(=O)[nH]1 | 0.1 | -0.025
53 | O=C(c1ccccc1)c1cc(Cl)ccc1NC(=O)c1c(O)c2ccccc2[nH]c1=O | . | 0.17

(listing goes on)
cpd | SMILES | AID504770 | Ba CapD inh
76 | CN(C(=O)c1c2c(nc3ccccc13)C(=O)N(C1CCCCC1)C2)C1CCCCC1 | -1 | -0.415
77 | O=C(CC(CC(=O)N1CCN(c2cccc3[nH]ccc23)CC1)c1ccc(Br)cc1)C1CC1 (stereo not given) | . | 0.995
78 | CCOC(=O)c1c(-c2ccccc2)csc1NC(=O)/C=C/c1ccco1 | 1.45 | i
79 | CCCCSc1nnc2c(n1)OC(c1c(C)[nH]n(-c3ccccc3)c1=O)Nc1ccccc1-2 (stereo not given) | . | -2.3
80 | CC(=O)Nc1nc2ccccc2n1CCN1CCCC1 | 1.35 | -0.33
81 | N#CCOc1ncn(-c2ccccc2)n1 | -0.3 | 0.205
82 | COc1ccc(-c2cc(C(F)(F)F)n3nc(C(=O)Nc4ccc5c(c4)OCO5)cc3n2)cc1OC | . | 0.15
83 | COc1ccc(C=Nc2ccc(O)cc2)cc1 | . | 2.06
84 | CCc1ccc(OC(=O)c2ccc(Br)o2)cc1 | 2.15 | 0.385
85 | CNC(=O)CN1CCC(c2nc3ccccc3[nH]2)CC1 | -0.15 | .
86 | O=C(NNC(=S)Nc1ccc(F)cc1)C(O)(c1ccccc1)c1ccccc1 | . | -0.835
87 | CN1C(=O)C2C(N=CN2CCCO)N(C)C1=O (stereo not given) | -0.5 | 0.31
88 | O=C1CCCC1Sc1nnnn1-c1ccccc1 (stereo not given) | 1.2 | .
89 | Fc1cc(Br)c(F)cc1Br | . | -0.05
90 | Clc1ccc(NCc2nnc(-c3ccccc3)o2)cc1 | -0.15 | 0.58
91 | CCOC(=O)C1=C(C)NC2=C(C(=O)CC(c3ccc(OC)c(OC)c3)C2)C1c1ccc([N+](=O)[O-])cc1 (stereo not given) | . | -0.535
92 | O=C(OC1CCCCc2cccnc21)c1ccc(Cl)cc1 (stereo not given) | -0.2 | 0.005
93 | CCCc1ccc(S(=O)(=O)N2CCCC(C)C2)cc1 (stereo not given) | . | -0.08
94 | Cc1nn(-c2ccccc2Cl)c(Cl)c1C=Nc1ccc2[nH]c(=O)[nH]c2c1 | 1.15 | .
95 | Cc1cccc2nc(-c3cccnc3Oc3ccccc3)oc(=O)c12 | 0 | 0.455
96 | CC(C)(C)OC(=O)N1CCCC(C(=O)CC#N)C1 (stereo not given) | -0.1 | .
97 | COc1ccc(N2CCN(c3ncnc4sc(C(=O)N5CCCC5)c(C)c34)CC2)cc1 | . | 0.21
98 | Cn1c(=O)c(C(=O)CNc2ccc(S(=O)(=O)N3CCCC3)cc2)c(N)n(Cc2ccccc2)c1=O | 0.1 | .
99 | CC1(C(=O)NC2CCCCC2)CCC(=O)N1CCc1ccccc1 (stereo not given) | -0.35 | -0.355
100 | COC(=O)c1cc(C)sc1NC(=S)NCCn1cc(Cl)cn1 | -1 | -2.03
101 | Cc1occc1C(=O)N1CCN(S(=O)(=O)c2ccc(F)cc2)CC1 | 0.4 | .
102 | COc1ccccc1C=Nc1c(C)n(C)n(-c2ccccc2)c1=O | . | 5.79
103 | CC(C)c1ccc(O)c(N)c1 | -2.25 | .
104 | OCCNCC12CC3CC(CC(C3)C1)C2 | -0.85 | .
105 | CC1(C)Cc2cccc(C(=O)Nc3ccc(-c4csnn4)cc3)c2O1 | 0.65 | -0.31
106 | CC(C)Cc1nc2sc3c(c2c(=O)o1)CCCCC3 | -0.6 | -0.09
107 | COc1ccc(-c2nc(=Nc3ccccc3)sn2-c2ccccc2)cc1 | . | -1.05
108 | O=C(CS(=O)c1cccc(C(F)(F)F)c1)Nc1ccc(Cl)cc1Cl (stereo not given) | . | -0.435
109 | CCC(=O)Nc1ccc2nc(SCc3cc([N+](=O)[O-])ccc3OC)sc2c1 | . | 0.085
110 | CC(C(=O)Nc1ccc(S(=O)(=O)N2CCCC2)cc1)N1CCN(c2ccccc2O)CC1 (stereo not given) | 0.65 | .
111 | CC1CC(C)CN(CCCNC(=O)c2ccc3c(c2)N(C)C(=O)/C(=C/c2ccccc2F)S3)C1 (stereo not given) | 0 | 0.12
112 | COC(=O)c1cc(-c2ccccc2Cl)n(-c2ccc(Cl)c(Cl)c2)n1 | . | -0.065
113 | Cc1ccc(/C=C2\SC(=O)N(c3ccccc3)C2=O)o1 | 1.95 | -0.21

Down the list, from the results shown:
Ba CapD inh for nos. 106 to 113 → -0.09, -1.05, -0.435, 0.085, ., 0.12, -0.065, -0.21

Source: PubChem BioAssay
